Bioassay records as filed in PubChem.
Mtb growth: Confirmatory growth inhibition assay against Mycobacterium tuberculosis H37Rv, potency (AID 1949). actives 1.6% (n = 100,000). most inactive calls were filed without a number and no value below 0 was filed. inhibition, % at 10 µg/mL, or IC50 in µg/mL where a hit was titrated;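 active = confirmed in a dose series; inconclusive = about 50% or more but not retested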;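 also: bacteria grown 7 days with compound before Alamar blue readout; 0% = untreated bacteria and 100% = reference antibiotic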
* marks the source's active call; other numbers are inactive results; i = inactive; ? = inconclusive. Only part of the results is shown. The share of hits here may be higher or lower than overall.

SMILES	Mtb growth
CC(=O)NCCNC(=O)c1cc2ccccc2oc1=O	i
Fc1ccc(N2CCN(Cc3nc(-c4ccccc4)no3)CC2)cc1	i
Cc1cnc(NC(=O)CSc2nnc(COc3ccccc3Cl)n2C)s1	i
CN(C)S(=O)(=O)N1CCc2ccccc21	i
COc1ccc(NC(=O)NN2CCN(C)CC2)c(OC)c1	i
O=C(CCNc1n[nH]c(=O)[nH]c1=O)N/N=C\c1ccc(Br)cc1	i
COc1ccccc1N1CCN(S(=O)(=O)c2ccc(Cl)c(C)c2Cl)CC1	0.9%
Cc1ccc(OCC(=O)Nc2cc(Cl)ccc2O)cc1C	i
CC(NC(=O)COc1ccccc1)C1CC2CCC1C2 (centres undefined)	i
CCN1CCN(C(=O)Nc2cccc([N+](=O)[O-])c2)CC1	i
O=C1C2C3c4ccccc4C(c4ccccc43)C2C(=O)N1CCOCc1ccccc1 (centres undefined)	i
Cc1ccc(CN(c2ccc(C(=O)Nc3ccccc3Br)cc2)S(C)(=O)=O)cc1	i
O=C(C1=C(O)C(=O)N(c2ncccn2)C1c1ccccc1F)c1ccco1 (centres undefined)	i
C=CCn1c(SCC(=O)Nc2nccs2)nc2sc(C)cc2c1=O	i
COc1ccc(NC(=O)C2COc3ccccc3O2)cc1 (centres undefined)	1.1%
Cc1onc(-c2ccccc2)c1C(=O)N1CC(C)N(C(=O)c2c(-c3ccccc3)noc2C)CC1C (centres undefined)	i
O=C(CNC(=O)c1cccs1)OCc1c(Cl)cccc1Cl	i
O=C(c1ccco1)N1CCCC(c2ccccc2)C1 (centres undefined)	i
COc1ccccc1CNC(=O)C1CC(=O)N(c2ccc(C)c(C)c2)C1 (centres undefined)	i
Cc1cc2nn(-c3ccc(F)cc3)nc2cc1NC(=O)c1ccc2c(c1)OCO2	i
COc1ccccc1CNC(=S)Nc1ccc(F)cc1	i
CCCn1c(C(O)c2ccc(OCc3ccccc3)c(OC)c2)nc2ccccc21 (centres undefined)	2.1%
c1ccc(Sc2ncnc3c2oc2ccccc23)cc1	0.0%
CC(c1ccccc1)C(CC(=O)O)C(=O)Nc1ccc(F)cc1 (centres undefined)	i
Cc1nn(-c2ccccc2)c2sc(C(=O)Nc3ccccc3F)cc12	?

Remaining list, next part:
SMILES	Mtb growth
CCOC(=O)C1=C(O)/C(=C/c2ccc(Br)cc2)SC1=Nc1ccc([N+](=O)[O-])cc1	i
CC(C)c1ccc(NC(=S)Nc2cccnc2)cc1	i
COc1ccc(N(C(C)C(=O)Nc2cccc(F)c2)S(C)(=O)=O)cc1 (centres undefined)	i
CCN(CC)C(=O)c1cn(-c2ccccc2)nc1-c1ccccc1	i
CC1CCc2sc3ncnc(N4CCCC4)c3c2C1 (centres undefined)	6.1%
COc1ccc(S(=O)(=O)N(CCc2ccccc2)CC(=O)N2CCCC2)cc1	1.7%
Cc1ccc(C(C)C)c(OCCN2CC(C)CC(C)C2)c1 (centres undefined)	i
O=C(/C=C/c1ccc(F)cc1)Nc1ncc(Cc2cccc(Cl)c2)s1	i
CC1(C)CC(=O)C2=C(C1)c1sc(N)nc1C2c1ccco1 (centres undefined)	0.7%
COCCCNCCCOc1cccc(Br)c1	i
CC1CN(S(=O)(=O)c2ccc(NC(=O)C(C)N3C(=O)c4ccccc4C3=O)cc2)CC(C)O1 (centres undefined)	i
O=S(=O)(Nc1ccc2c(c1)OCO2)c1ccc2c(c1)OCCO2	i
CC1CN(C(=O)Cc2ccccc2)C(C)CN1C(=O)Cc1ccccc1 (centres undefined)	2.8%
CC(C)n1c(C(O)(c2ccccc2)c2ccccc2)nc2ccccc21	i
CCc1cc(=O)oc2c(C)c(OCC(=O)Nc3cccc(OC)c3)ccc12	6.9%
CCn1c(COc2ccccc2)nnc1SCC(=O)Nc1ccc(Br)c(Cl)c1	i
CCc1cc(=O)oc2cc(C)cc(OCC(=O)c3cccc([N+](=O)[O-])c3)c12	i
O=C(CCCn1c(=S)[nH]c2ccccc2c1=O)NCc1ccco1	i
COc1cc(OC)cc(C(=O)Nc2ccc(C(=O)OC(C)C)cc2)c1	35.7%
CCC(Oc1ccccc1)C(=O)NCCc1ccc(S(N)(=O)=O)cc1 (centres undefined)	i
CCOc1cc(CNc2ccc(O)cc2)cc(Br)c1OCc1ccccc1F	1.6%
COc1cccc(N2CCN(C3CC(=O)N(c4cc(Cl)ccc4C)C3=O)CC2)c1 (centres undefined)	i
Cc1cccc(NC(=S)NC(=O)c2ccc(Br)o2)c1C	i
COc1ccc(CCCc2nnc(SCC(=O)NCCc3ccccc3)n2C)cc1C	i
COC(=O)C1=CN(C)C=C(C(=O)OC)C1c1cc(Cl)c(O)c(OC)c1	i

Among those listed so far, 8 contain a Cl atom.
SMILES	Mtb growth
Cc1cnc(NC(=O)CSc2nnc(COc3ccccc3Cl)n2C)s1	i
COc1ccccc1N1CCN(S(=O)(=O)c2ccc(Cl)c(C)c2Cl)CC1	0.9%
Cc1ccc(OCC(=O)Nc2cc(Cl)ccc2O)cc1C	i
O=C(CNC(=O)c1cccs1)OCc1c(Cl)cccc1Cl	i
O=C(/C=C/c1ccc(F)cc1)Nc1ncc(Cc2cccc(Cl)c2)s1	i
CCn1c(COc2ccccc2)nnc1SCC(=O)Nc1ccc(Br)c(Cl)c1	i
COc1cccc(N2CCN(C3CC(=O)N(c4cc(Cl)ccc4C)C3=O)CC2)c1 (centres undefined)	i
COC(=O)C1=CN(C)C=C(C(=O)OC)C1c1cc(Cl)c(O)c(OC)c1	i

Next section:
SMILES	Mtb growth
O=C(NNC(=O)c1ccccn1)NC12CC3CC(CC(C3)C1)C2	45.2%
COC(=O)c1cc(OC)c(OC)cc1NC(=O)c1sc2ccccc2c1Cl	1.7%
CC(NC(=O)c1ccnc(C(C)(C)C)c1)c1ccccc1 (centres undefined)	i
Cc1c(NC(=O)c2cccc3c2-c2ccccc2C3=O)c(=O)n(-c2ccccc2)n1C	i
Nc1c(C(=O)NCc2ccc(Cl)cc2)sc2nc3c(c(C(F)(F)F)c12)CCC3	9.45µg/mL*
Cc1c(/C(O)=C2\C(=O)C(=O)N(CCN3CCOCC3)C2c2ccc(OC(C)C)cc2)cnn1-c1ccccc1 (centres undefined)	i
CCC(Sc1nc(C)cc(=O)[nH]1)C(=O)Nc1ccccc1OC (centres undefined)	1.6%
CCc1ccc(-c2nc3ccc(Br)cc3c(C(=O)O)c2C)s1	i
Cc1ccc(C(=O)NCc2nnc(SCC(=O)Nc3ccc([N+](=O)[O-])cc3C)n2C)cc1	0.5%
Fc1ccc(COc2ccc(C(=S)N3CCOCC3)cc2)cc1	i
CCOC(=O)C1CCN(S(=O)(=O)c2ccc(Cl)c(OC)c2)CC1	i
Cc1ccc(S(=O)(=O)N(C)CC(=O)O/N=C(\N)c2ccc([N+](=O)[O-])cc2)cc1	i
Cc1ccc(Cn2c(CC(C)C)nc3ccccc32)cc1	17.4%
CCC(CC)C(=O)N(Cc1ccccc1)Cc1ccccc1	3.9%
O=C(Nc1ccc(Br)cc1F)NC1CCCCC1	i
COc1ccc(Cl)cc1C(=O)NC1CC(C)(C)NC(C)(C)C1	i
O=C(CN(C(=O)c1ccc(Cl)cc1Cl)N1C(=O)CCCC1=O)c1ccc(F)cc1	i
COc1ccc(S(=O)(=O)N(CC(=O)N2CCOCC2)c2ccccc2OC)cc1	i
O=C(COc1ccccc1)NNC(=O)c1cc2ccccc2oc1=O	i
COc1ccc(NC(=O)C(=O)NCc2ccncc2)cc1OC	3.2%
COc1ccc(-c2cc(=O)oc3cc(OCC(=O)Nc4ccc5c(c4)OCO5)ccc23)cc1	i
CCCC(=O)Nc1ccccc1NC(=O)c1ccc(OC(C)=O)cc1	i
Cc1cccc(N(CC(=O)Nc2ccc(Cl)c(Cl)c2)S(C)(=O)=O)c1	i
COC(=O)COc1ccc(CSCC(=O)Nc2ccc3ccccc3c2)cc1	0.44µg/mL*
CCSc1ccccc1C(=O)Nc1nc(=O)c2ccccc2s1	i

Structures shown so far that contain a nitro group on carbon, in the order listed:
SMILES	Mtb growth
CCN1CCN(C(=O)Nc2cccc([N+](=O)[O-])c2)CC1	i
CCOC(=O)C1=C(O)/C(=C/c2ccc(Br)cc2)SC1=Nc1ccc([N+](=O)[O-])cc1	i
CCc1cc(=O)oc2cc(C)cc(OCC(=O)c3cccc([N+](=O)[O-])c3)c12	i
Cc1ccc(C(=O)NCc2nnc(SCC(=O)Nc3ccc([N+](=O)[O-])cc3C)n2C)cc1	0.5%
Cc1ccc(S(=O)(=O)N(C)CC(=O)O/N=C(\N)c2ccc([N+](=O)[O-])cc2)cc1	i

Additional records follow.
SMILES	Mtb growth
COC(=O)Cc1ccc(NC(=S)N2CCC(Cc3ccccc3)CC2)cc1	i
C=CCNCCCOc1cccc(Br)c1	i
CC(=O)c1ccc(NC(=O)Nc2ccc(I)cc2)cc1	i
COC(=O)CCC(=O)N1CCc2ccccc21	i
CCc1ccccc1N1CCN(S(=O)(=O)c2cc(OC)ccc2OC)CC1	i
CCC(Sc1nc(N)cc(=O)[nH]1)C(=O)Nc1ccccc1C#N (centres undefined)	i
COc1ccc(OC)c(S(=O)(=O)Nc2ccc(C(C)C)cc2)c1	i
Nc1ncnc2nc(SCCN3CCCCC3)[nH]c12	2.9%
CCc1cccc(CC)c1NC(=O)c1cc(F)c(F)cc1Cl	i
Cc1c(NC(=O)c2ccc3c(c2)C(=O)N(C)C3=O)cccc1C(=O)O	i
Cc1ccc(C(=O)Nc2cccc(-c3nc4ccccc4s3)c2)cc1	i
CCc1c(C)sc(NC(=S)Nc2ccc(S(=O)(=O)NC(=O)c3ccccc3)cc2)c1C(=O)OC	i
COc1ccc(NC(=O)c2cccc(Cl)c2Cl)c(OC)c1	39.1%
Cc1ccccc1-n1c(SC(C)C)nc2ccccc2c1=O	14.6%
Fc1ccc(CNC(=S)NCc2cccs2)cc1	i
CCOC(=O)c1sc(NC(=O)C(CC)Sc2nnc3c4ccccc4n(C)c3n2)nc1C (centres undefined)	i
COc1ccc(C)cc1NC(=S)NCc1cnn(C)c1	i
CCCCC(=O)NC(c1ccc(Cl)cc1Cl)c1ccc2cccnc2c1O (centres undefined)	i
O=C(CS(=O)(=O)c1ccccc1)Nc1nccs1	i
CC(C)C(=O)Nc1nnc(SCC(=O)Nc2cccc(C(F)(F)F)c2)s1	i
CSc1sc(C)cc1C1C(C(=O)Nc2ccccc2)=C(C)NC2=C1C(=O)CCC2 (centres undefined)	i
CC(=O)c1cccc(NC(=O)NCc2ccc(Cl)c(Cl)c2)c1	i
Cc1cccn2cc(-c3ccc(NC(=O)c4ccco4)cc3)nc12	i
CSc1ccc(S(=O)(=O)N2c3ccccc3CC2C)cc1 (centres undefined)	i
CCN(CC)CCn1c2ccccc2c2n[nH]c(=S)nc21	i

2 of these compounds, set out differently.
Nc1ncnc2nc(SCCN3CCCCC3)[nH]c12
  Mtb growth: 2.9%

CCc1cccc(CC)c1NC(=O)c1cc(F)c(F)cc1Cl
  Mtb growth: i

New compounds follow:
SMILES	Mtb growth
C/C(=C\c1ccc(-c2ccc(Cl)c(C(=O)O)c2)o1)[N+](=O)[O-]	i
CC(NC(=O)CCc1ccc(S(=O)(=O)NC(C)(C)C)cc1)c1ccccc1 (centres undefined)	i
COC(=O)c1ccc(Cl)c(NC(=O)CN(c2cccc(Cl)c2)S(C)(=O)=O)c1	i
O=C(O)CCCCCN1C(=O)c2cccc3c([N+](=O)[O-])ccc(c23)C1=O	i
COc1ccc(CCNC(=O)c2cc(OC)c(OC)c(OC)c2Br)cc1	i
COc1ccc(-n2c3c(cc(C(=O)Nc4ccc(Cl)c(Cl)c4)c2=O)C(=O)CC(C)(C)C3)cc1	i
O=C(O)CN=C(NS(=O)(=O)c1ccc(Cl)cc1)c1ccc(F)cc1	i
O=C(Nc1cccc(Cl)c1N1CCOCC1)c1cccs1	i
COC(=O)c1ccc(NC(=O)C(C(F)(F)F)C(F)(F)F)cc1	2.8%
O=c1[nH]c(=O)c2sc3nc4c(cc3c2[nH]1)CCC4	i
COc1ccc(C(=O)NC(=S)Nc2ccccc2-c2nc3ccccc3s2)cc1[N+](=O)[O-]	0.9%
Cc1cc(C)cc(C(=O)NC(=S)Nc2ccc(N3CCOCC3)c(Cl)c2)c1	i
O=C1/C(=C/c2ccc(-c3ccc(Cl)cc3)o2)SC(=S)N1CC1CCCO1 (centres undefined)	i
O=C(CSc1nsc(SCC(=O)c2ccccc2)n1)c1ccccc1	i
C=CCc1c(C)nc(SCC(=O)Nc2cc(Cl)cc(Cl)c2)[nH]c1=O	i
Cc1ccc(S(=O)(=O)N2CCC(C(N)=O)CC2)cc1	i
CCC(C)Cn1c(Cc2ccccc2)nc2ccccc21 (centres undefined)	1.9%
C/C=C/c1c(F)c(F)c(Oc2ccc(C(=O)CC)cc2)c(F)c1F	0.0%
CCc1sc(NC(=O)C2CCCO2)nc1-c1ccccc1 (centres undefined)	i
Cc1ccc(COc2ccccc2C(=S)N2CCCC2)cc1	i
COc1cc(Br)c(C2C(C#N)=C(N)Oc3n[nH]c(-c4ccccc4Cl)c32)cc1OC (centres undefined)	i
Cc1cc(C)nc(SCc2nnc(SCC(=O)Nc3ccccc3C(F)(F)F)n2C)n1	i
CCCCOc1ccc(C(=O)Nc2ccc3[nH]c(C)cc(=O)c3c2)cc1	0.5%
CCOC(=O)N1CCN(C(=O)Nc2ccc3oc(C)nc3c2)CC1	0.8%
CC1(C)Cc2c(sc(NC(=O)c3ccccc3Br)c2C(N)=O)CO1	i

Next section:
SMILES	Mtb growth
O=C(Nc1cccc(Cl)c1)OCc1ccccc1F	i
CC(=O)Nc1c(NC(C)(C)C)c2ccccc2oc1=O	i
CC1CN(S(=O)(=O)c2ccc(C(C)(C)C)cc2)CC(C)O1 (centres undefined)	i
CC(C)COc1ccc(-c2nn(-c3ccccc3)cc2C(N)=O)cc1	i
CN(CC(=O)Nc1cccc2ccccc12)S(=O)(=O)c1ccc(Cl)cc1	i
CCCCc1ccc(NS(=O)(=O)CC(C)C)cc1	32.6%
CC(C)CN1C(=O)c2ccc(NC(=O)COc3ccccc3)cc2C1=O	i
COc1cc(NC(=O)C(C)(C)C)ccc1NC(=O)C(C)C	i
CCOC(=O)CCc1nc2ccccc2[nH]c1=O	i
O=c1n(-c2cccc(Cl)c2)c(=O)n2n1CCC2	i
S=C(NCC1CCCO1)Nc1cnn(Cc2ccc(Cl)cc2)c1 (centres undefined)	i
